TSHR agonist – agonists of human thyroid stimulating hormone receptor | AID 926 | HEK293-CNG-TSHR cells (CNG channel as cAMP sensor), membrane potential dye, cAMP | Potency, µM (top dose mostly 57.1 µM), for the others: at the highest dose activation, usual class: activators | 73,000 compounds, 0.48% hits; active = well fitted activation curve of enough size with the parental cells flat; inconclusive = any curve in the parental cells; inactive = parental cells flat and receptor cells flat or falling; also: potency is read from the fitted curve at half-maximal effect; % of control where 0% means no effect; weak receptor curves with flat parental cells got no call and are not listed
Target sequence (P16473 whole entry, looked up): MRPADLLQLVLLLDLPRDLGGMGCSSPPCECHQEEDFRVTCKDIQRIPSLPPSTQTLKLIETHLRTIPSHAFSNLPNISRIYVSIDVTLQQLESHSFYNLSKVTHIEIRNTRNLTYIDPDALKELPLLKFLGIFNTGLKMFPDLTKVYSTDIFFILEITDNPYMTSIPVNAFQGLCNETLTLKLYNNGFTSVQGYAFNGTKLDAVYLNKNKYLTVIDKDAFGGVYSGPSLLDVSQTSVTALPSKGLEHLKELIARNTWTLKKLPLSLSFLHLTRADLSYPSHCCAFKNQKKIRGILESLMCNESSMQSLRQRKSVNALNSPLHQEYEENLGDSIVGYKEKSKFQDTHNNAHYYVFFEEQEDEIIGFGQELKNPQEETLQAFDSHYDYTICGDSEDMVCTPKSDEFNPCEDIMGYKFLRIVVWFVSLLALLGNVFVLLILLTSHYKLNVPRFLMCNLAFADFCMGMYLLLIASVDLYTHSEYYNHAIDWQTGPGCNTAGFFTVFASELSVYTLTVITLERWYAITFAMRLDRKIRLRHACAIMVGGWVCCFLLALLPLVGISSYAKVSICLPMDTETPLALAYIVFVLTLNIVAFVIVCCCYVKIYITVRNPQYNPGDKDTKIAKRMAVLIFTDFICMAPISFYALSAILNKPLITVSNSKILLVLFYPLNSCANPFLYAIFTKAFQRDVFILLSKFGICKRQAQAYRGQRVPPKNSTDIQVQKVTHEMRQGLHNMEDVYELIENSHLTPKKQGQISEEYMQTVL
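HEK 293 cells stably expressing TSHR and a cAMP-gated CNG channel; parental CNG-only cells as counterscreen. Cells preloaded 60 min with membrane potential dye plus 100 uM RO 20-1724, then compound 30 min; fluorescence read at 590 nm.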
Resorufin autofl – compound fluoresces in the resorufin spectral region | Compound fluorescence, resorufin region 547/598 nm, buffer; stronger effect = higher value | max dye-equivalent concentration, M | 59,000 compounds, 0.04% hits; active = above 10 nM dye equivalent; inconclusive = 1 to 10 nM; inactive = 1 nM or less; a few of its hits are not listed in these tables; also: highest value over a series up to 38 µM
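Read-out: intrinsic compound fluorescence at ex 547/em 598 nm after 15 min at RT in pH 8.0 Tris (100 mM). Values expressed as resorufin-equivalent concentration from per-plate standard series.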
A488 fluor – compound fluoresces in the A488 spectral region. max dye equivalency, M. AID 591. compound autofluorescence, A488 spectral region, dye equivalency; stronger effect = higher value. 59,000 compounds, 0.1% hits; active = above 10 nM dye equivalent; inconclusive = 1 to 10 nM; inactive = 1 nM or less; about half of its hits are not listed in these tables;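 also: highest value over a series up to 38 µM; compound alone in buffer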
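Compounds pin-transferred into 100 mM Tris buffer, pH 8.0, incubated 15 min at room temperature, then imaged with 480 nm excitation/540 nm emission filters. Fluorescence converted to Alexa 488 dye-equivalent concentration via an on-plate six-point A488 standard curve.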
AID923 – qHTS Assay for Allosteric/Competitive Inhibitors of Caspase-1: Spectroscopic Profiling in AFC Spectral Region | Potency, µM (highest dose often 57.5 µM), inactives show top-dose fluorescence increase, most hits filed as activators | compound fluorescence, AFC spectral region (405/520 nm); almost no hit is shown here | 75,000 compounds, 1.1% hits; active = well fitted activation curve with a large enough effect; inconclusive = small, poorly fitted or top-dose-only effect;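 also: potency is read from the fitted curve at half-maximal effect; 0% is about no effect; scaled to a free AFC standard on each plate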
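Titrations up to 57 uM read every 20 sec for 3 min (405/520 nm) with 50 nM caspase 1 and 5 uM Ac-WEHD-AFC, pH 7.5 HEPES buffer. Fluorescence-vs-time intercept gave baseline, scaled against on-plate AFC standard.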
A647 autofl – compound autofluorescence in A647 spectral region; Compound fluorescence, A647 channel (570/671 nm), Tris buffer; max dye-equivalent concentration, M; 59,000 tested, under 10 active; AID 592; active means above 1 µM dye equivalent; inconclusive means 0.1 to 1 µM; inactive means 0.1 µM or less;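 also: values scaled relative to a standard on each plate; highest value over a series up to 38 µM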
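Each compound's intrinsic fluorescence at 570 nm excitation and 671 nm emission is measured across its concentration series in 100 mM Tris, pH 8.0, after 15 min at room temperature, and reported relative to an A647 curve.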
* hit, by the source's call; i = inactive; ? = inconclusive; . = no result given; ! = not active in a repeat; [ ] = dose if it differs, or a comment. Not all compounds are listed; rates above refer to the full screens.

Sequence of screens: Resorufin autofl	A488 fluor	TSHR agonist	A647 autofl	AID923
CCSC1=C(C#N)C(c2ccc(OC)c(OC)c2)CC(=O)N1 (stereo not given)
  i	i	-1%	1e-09	-1.1%
COC(=O)c1ccc(C2C(C(=O)c3cc4ccccc4o3)=C(O)C(=O)N2CCCN(C)C)cc1 (stereo not given)
  i	i	.	4.1e-09	.
Cn1c(Cc2ccccc2)nnc1SCC(=O)NC1CCCCC1
  .	.	13%	.	-0.4%
O=C(Nc1cccc(F)c1)N1CC[C@@]2(CCCN(C(=O)c3ccncc3)C2)C1
  i	i	?	1.6e-08	-0.7%
O=c1c2[nH]c3ccccc3c2ncn1Cc1cccnc1
  i	i	-2%	1e-09	-0.4%
CCn1c(SCC(=O)NCc2ccc3c(c2)OCO3)nnc1-c1cccs1
  i	i	4%	2e-08	0.6%
Cn1c(=O)[nH]c(=O)c2c1nc(Br)n2CCSc1nc2ccccc2o1
  i	i	-2%	4.4e-08	-2.1%
Cc1ccc(NC(=O)COc2ccc3oc4c(c3c2)CCCC4)nc1
  i	i	?	1e-09	2.3%
CCN1CC2=C(OC(N)=C(C#N)C2c2cccs2)/C(=C/c2cccs2)C1 (stereo not given)
  i	i	10%	3.2e-08	8.3%
COC(=O)[C@@]1(Cc2ccc(OC)cc2)[C@H]2c3cc(C(=O)N(C)C)n(Cc4ccc(C(F)(F)F)nc4)c3C[C@H]2CN1C(=O)c1ccccc1
  .	.	?	.	-3.6%
O=C(c1cc2sccc2n1Cc1ccccc1)N1CCc2ccccc21
  i	i	?	1e-09	1.9%
Cc1cc(C)n2nc(SCC(=O)N(C)Cc3ccccc3)nc2n1
  i	i	-2%	2.2e-08	0.1%
CCN(CC)c1ccc(NC(=O)c2ccco2)cc1
  i	i	-7%	7.4e-09	-0.7%
CC(C)(CN)SCc1ccccc1
  i	i	-3%[11.4 µM]	3.7e-09	2.9%[11.5 µM]
NC(=O)C1CCN(c2nc(C3CC3)nc3c2nnn3Cc2ccccc2Cl)CC1
  i	i	2%	3.2e-08	1.2%
CCCn1c(SCC(=O)NCC2CCCO2)nc2c1c(=O)n(C)c(=O)n2C (stereo not given)
  i	i	-4%	6.5e-09	-1.0%
Cn1nnnc1NCc1c(F)cccc1Cl
  i	i	-3%	1e-09	1.7%
COc1ccc(S(=O)(=O)NCc2csc(C)n2)cc1
  i	i	15%[11.4 µM]	1e-09	0.1%
CC1=C(C(=O)NCc2ccccc2)C(c2ccc(C)o2)n2ncnc2N1 (stereo not given)
  i	i	-2%	1e-09	1.0%
COc1cc(CNC2CCCC2)cc(OC)c1
  .	.	?	.	5.6%
COc1cc(NC(=O)c2ccccc2Cl)c(OC)cc1NC(=O)CN1CCOCC1
  i	i	-3%	4.4e-08	-2.8%
COc1ccc2c(c1)c(=O)oc1cc(OCC(=O)N3CCCC(C)C3)ccc12 (stereo not given)
  i	i	?	1e-09	3.4%
COc1ccc(-c2ccc(=O)n(CC(=O)NCc3ccco3)n2)cc1
  i	i	3%	3.8e-09	0.5%
N#CCCn1c(=O)c(-c2cccs2)nc2cnc(Oc3cccc(Cl)c3)nc21
  i	i	-11%	2.5e-08	0.5%
CCOC(=O)CNC(=O)CN1C(=O)CCS(=O)(=O)c2ccccc21
  i	i	-3%	1e-09	1.4%
O=C(CN1C(=O)C2C3C=CC(C3)C2C1=O)Nc1ccc2c(c1)OCCO2 (stereo not given)
  i	i	-1%	1e-09	0.7%
O=C(NCN1CCN(c2ccccn2)CC1)c1cnccn1
  i	i	2%	3.1e-09	1.5%
CCOC(=O)COc1ccc2cc(C(=O)OCC)c(=O)oc2c1
  .	.	-9%[11.4 µM]	.	1.1%
CCN(CC)S(=O)(=O)c1ccc(OCC(=O)NCc2ccccc2)cc1
  i	i	3%	1e-09	-0.2%
O=C(O)C[C@H](Cc1ccc2c(c1)OCO2)C(=O)O
  i	i	7%[11.4 µM]	1e-09	-2.7%[11.5 µM]
Cc1ccc2oc(-c3ccc(NC(=O)c4ccc5c(c4)OCO5)cc3)nc2c1
  i	i	0%	1e-09	-1.2%
COc1ccc(S(=O)(=O)Nc2nnc(C(C)C)s2)cc1
  i	i	-1%	2.2e-08	-1.0%
CCOc1ccc(N(CC(=O)NC2CCCC(C)C2C)S(=O)(=O)c2c(C)noc2C)cc1 (stereo not given)
  .	.	?	.	2.7%
Cc1nc(N)sc1-c1nnc(SCC(=O)Nc2nccs2)n1C
  i	i	1%	1.5e-08	0.1%
O=C1CSC(c2cn(-c3ccccc3)nc2-c2cccs2)N1CC1CCCO1 (stereo not given)
  i	i	10µM*	1e-09	-1.5%
COc1ccc(OC)c(-n2nnnc2SCC(=O)Nc2ccc(C(=O)N3CCCCC3)cc2)c1
  i	i	10%	2.8e-08	-1.3%
Cc1ccc(C(=O)CSc2ncn[nH]2)cc1
  i	i	-1%	2.1e-08	1.6%
CSC1=NCCN1C(=O)C(C)Oc1ccccc1 (stereo not given)
  .	.	3%	.	2.5%
Cc1nc(N2CCN(Cc3ccccc3)CC2)c(C#N)c2c1COC(C)(C)C2
  i	i	.	3.5e-09	.
COc1ccc2[nH]cc(CCNc3cc(-c4ccccc4C(F)(F)F)ncn3)c2c1
  i	i	0%	1.6e-09	-1.2%
COc1ccc(CCn2c(N3CCN(Cc4ccccc4)CC3)nc3c2c(=O)[nH]c(=O)n3C)cc1
  i	i	3%	2.1e-08	-1.8%
COc1ccc(-c2nc(C#N)c(NCCc3ccccc3)o2)cc1
  i	i	-10%	1.9e-08	-2.0%
O=C(c1cc2ccccc2oc1=O)N1CCCN(C(=O)c2cc3ccccc3oc2=O)CC1
  i	i	0%	4.8e-09	1.5%
O=C(c1ccc(N2C(=O)C3CC=C(Cl)CC3C2=O)cc1)N1CCCCC1 (stereo not given)
  i	i	.	4.5e-08	.
O=C(Nc1ccc(Cl)cc1)N1CCSCC1
  i	i	-7%	4.8e-09	1.5%
CN1[C@@H]2CC(OC(=O)[C@H](CO)c3ccccc3)C[C@H]1[C@@H]1O[C@@H]12 (stereo not given in full)
  i	i	.	1e-09	.
Cc1cc(N)n2ncc(-c3ccccc3)c2n1
  i	i	?	5.9e-08	0.5%
CC(c1nnc(SCC(=O)Nc2sccc2C#N)n1-c1ccc(Cl)cc1)N(C)C (stereo not given)
  i	i	11%[11.4 µM]	4e-08	1.5%
Cc1ccc(N2C(=O)C3C(C2=O)C2C=CC3C23CC3)cc1 (stereo not given)
  .	.	16%	.	-0.5%
COC(=O)CSc1nc(N2CCCCC2)c2c(c1C#N)CCCC2
  i	i	.	1.9e-08	-2.6%
COc1cccc(NC2=NC3(CCCCC3)N=C(N)N2)c1
  i	i	4%	1e-09	-0.3%
O=C(c1ccc(C(=O)N2CCN(c3ccccc3F)CC2)nc1)N1CCN(c2ccccc2F)CC1
  i	i	1%	1e-09	2.0%
ON=C1CCCCC1
  .	.	?	.	13%
Cc1cccc(OCC(=O)Nc2ccccc2N2CCCCC2)c1
  i	i	?	1e-09	-0.7%
c1ccc(Nc2cc(-c3ccccc3)nc3ncnn23)cc1
  i	i	.	2.6e-08	2.1%
O=C(Nc1cnccn1)c1cccc(C(F)(F)F)c1
  i	i	?	4.3e-08	14%
CCOC(=O)c1cc2c(ccn2C)n1Cc1ccccc1C
  i	i	?	1e-09	2.0%
O=C(NCCCN1CCCC1=O)c1ccc2c(c1)NC(=O)C(N1CCOCC1)S2 (stereo not given)
  i	i	0%	2.2e-09	0.0%
CCOC(=O)C1=C(C)Nc2ncnn2C1c1cc(Br)ccc1F (stereo not given)
  i	i	12%	2.4e-09	-0.6%
CCOc1cc2[nH]c(=O)n(CCc3ccc(OC)c(OC)c3)c(=O)c2cc1OCC
  i	i	-4%	1e-09	0.2%

(list continues)
Sequence of screens: Resorufin autofl	A488 fluor	TSHR agonist	A647 autofl	AID923
O=C(c1ccccc1)N1CC(COc2ccccc2)OC(c2cccnc2)O1 (stereo not given)
  i	i	15%[11.4 µM]	1e-09	-0.5%
O=C(NCCc1ccncc1)Nc1ccccc1
  i	i	-1%	1.4e-08	0.0%
COC(=O)CSc1nc2sc(C)c(C)c2c(=O)n1C
  i	i	11%	2.6e-09	-1.5%
CC(=O)Oc1c2occc2cc2ccc(=O)oc12
  .	.	7%	.	1.5%
COc1ccccc1-c1c(C)c(C)nc(N)c1C#N
  i	i	-4%	2.1e-08	-1.4%
Cn1c(=O)c2c(nc(NCCCO)n2Cc2cccc(C(F)(F)F)c2)n(C)c1=O
  i	i	.	9.4e-08	.
CCn1c(SCC(N)=O)nnc1-c1ccc2[nH]c(C)c(C)c2c1
  i	i	-3%	1.2e-08	-0.6%
NC[C@](O)(CS(=O)(=O)O)c1ccc(Cl)cc1
  i	i	0.13µM*!	5.1e-08	-2.1%
O=C(Nc1nnc(SCC(=O)N2CCCCC2)s1)c1cccs1
  i	i	-3%	1.5e-08	-2.3%
CCc1nnc(SCC(=O)Nc2ccccc2)nc1CC
  i	i	-4%	7.9e-09	0.4%
Cc1ccc(-c2noc(CN(C(=O)C34CC5CC(CC(C5)C3)C4)C(C)C)n2)cc1
  i	i	6%	1e-09	3.7%
FC(F)(F)c1ccccc1-c1nc(N2CCNCC2)c2ccccc2n1
  i	i	2%	1e-09	-3.8%
COC(=O)c1nnn(CC(=O)Nc2cccc(Cl)c2C)c1C(=O)OC
  i	i	3%	1e-09	-0.9%
COc1cccc(N(C(=O)CNC(=O)c2ccco2)C(C(=O)NC2CCCC2)c2ccncc2)c1 (stereo not given)
  i	i	4%	1.1e-08	-1.4%
Cc1cccc(N(C)C(=O)c2cc3cc4ccc(C)cc4nc3o2)c1
  i	i	?	1.6e-08	1.3%
Cc1cccc(CN2CCN(C(=O)c3ccccc3F)CC2)c1
  i	i	2%	2.9e-08	0.2%
COC(=O)CCC(=O)Nc1ccccc1C(N)=O
  .	.	-15%	.	0.2%
Fc1ccc(Nc2ccnc(-c3ccc4c(c3)OCO4)n2)cc1
  i	i	0%	4.1e-08	-0.7%
CSc1nnc(-c2ccccc2)o1
  .	.	-1%	.	1.1%
Cc1nn(Cc2ccccc2)c(C)c1NC(=O)c1cc(-c2cccs2)on1
  i	i	15%	1e-09	-0.3%
c1ccc2c(c1)[nH]c1c(N3CCCC3)ncnc12
  i	i	27%	1.4e-09	0.3%
Cc1cc(N2CCCCC2)n2nc(C)c(-c3ccccc3)c2n1
  i	i	1%[11.4 µM]	4.5e-09	5.8%
Cc1nn(C(=O)c2cccs2)c(C)c1CN1C(=O)c2ccccc2C1=O
  i	i	.	3.2e-08	-0.8%

Reformatted: 5 of the compounds above
SMILES,Resorufin autofl,A488 fluor,TSHR agonist,A647 autofl,AID923
CC(=O)Oc1c2occc2cc2ccc(=O)oc12,.,.,7%,.,1.5%
COC(=O)c1nnn(CC(=O)Nc2cccc(Cl)c2C)c1C(=O)OC,i,i,3%,1e-09,-0.9%
Cc1cccc(N(C)C(=O)c2cc3cc4ccc(C)cc4nc3o2)c1,i,i,?,1.6e-08,1.3%
COc1cccc(N(C(=O)CNC(=O)c2ccco2)C(C(=O)NC2CCCC2)c2ccncc2)c1 (stereo not given),i,i,4%,1.1e-08,-1.4%
Cc1nn(Cc2ccccc2)c(C)c1NC(=O)c1cc(-c2cccs2)on1,i,i,15%,1e-09,-0.3%

Screening results deposited in PubChem by National Center for Advancing Translational Sciences (NCATS).
